Screening data as filed in PubChem BioAssay.
MLL AF4-AF9 inh: inhibitors of AF4 peptide binding to AF9, primary screen, biochemical, AlphaScreen, biotin-AF4 peptide, FLAG-AF9, single point | Protein AF-9 (Homo sapiens), P42568 | inhibition, % at 10 µM | hit rate 0.47% among 350,000 | AID 651704, 2012;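 active means every replicate reaching a set inhibition limit, whatever the replicate mean, cut at about 25% in these data; inconclusive means mean inhibition reaches that limit but some replicates miss it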;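 further: 0% = plate neutral control median and 100% = total signal loss; the record names both 10 and 1 µM as test concentration; the first replicate is given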
ALR H2O2 inh: inhibitors of human ALR sulfhydryl oxidase, primary screen, biochemical, H2O2 detection, HRP-luminol luminescence, single point | inhibition, % (test concentration not listed) | hit rate 3.8% among 290,000 | purified ALR, DTT oxidation;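 active means mean and each replicate at 75% or more; inconclusive means only one of the two met; inactive means neither met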;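 further: stock transfer was 7.5 nL into about 7.5 µL; 0% = neutral wells and 100% = wells with inactivated enzyme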
Target sequence (P55789 whole entry, looked up): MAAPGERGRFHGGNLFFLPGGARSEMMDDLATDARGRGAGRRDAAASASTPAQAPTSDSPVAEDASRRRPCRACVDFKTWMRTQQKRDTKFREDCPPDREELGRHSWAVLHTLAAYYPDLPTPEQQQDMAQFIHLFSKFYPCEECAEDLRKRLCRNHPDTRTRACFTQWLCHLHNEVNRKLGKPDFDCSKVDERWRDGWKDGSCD
FGF22 binding: binders of human FGF22 protein, primary screen, FGF22 synaptogenesis inhibitor project, biophysical, thermal shift, single point. calls only at 9.99 µM. recombinant FGF22 thermal shift, SYPRO orange fluorescence; percent of sucrose octasulfate shift, DMSO zero. hit rate 1.5% among 340,000;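 active means melting point raised past a set limit in the mean and every replicate; inconclusive means no clear call; three in four hits are not shown here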
Target sequence (Q9HCT0 whole entry, looked up): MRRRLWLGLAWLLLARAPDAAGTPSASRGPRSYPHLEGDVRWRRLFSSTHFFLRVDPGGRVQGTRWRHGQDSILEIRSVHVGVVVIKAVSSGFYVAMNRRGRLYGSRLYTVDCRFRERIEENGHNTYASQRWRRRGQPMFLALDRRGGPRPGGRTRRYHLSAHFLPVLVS
Ecoli growth: E. coli growth inhibition, primary screen, OD600; Escherichia coli growth, 23 h; active compounds read low; OD600 absorbance (no concentration beside the values); hit rate 0.21% among 330,000;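 active means OD600 absorbance below the run mean of sample wells minus 3.6 SD, in any replicate, cut at about 0.56 in these data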;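 further: stock transfer was 300 nL into about 60 µL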
HNF4A DNA FP: change in binding of human HNF4A to DNA, primary screen, biochemical, fluorescence polarization, FITC-DNA | activity change, % at 10 µM | 1 h | Hepatocyte nuclear factor 4-alpha (Homo sapiens), P41235 | hit rate 0.3% among 360,000; in the data active means activity change above about 30%, passing the limit was not always enough;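 further: controls were the assay level and a saturating level of protein; the project sought stronger binding though the title names inhibitors; some compounds called inactive have numbers as strong as hits; positive values seem to mean higher polarization but the record does not say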
Target sequence (P41235 whole entry, looked up): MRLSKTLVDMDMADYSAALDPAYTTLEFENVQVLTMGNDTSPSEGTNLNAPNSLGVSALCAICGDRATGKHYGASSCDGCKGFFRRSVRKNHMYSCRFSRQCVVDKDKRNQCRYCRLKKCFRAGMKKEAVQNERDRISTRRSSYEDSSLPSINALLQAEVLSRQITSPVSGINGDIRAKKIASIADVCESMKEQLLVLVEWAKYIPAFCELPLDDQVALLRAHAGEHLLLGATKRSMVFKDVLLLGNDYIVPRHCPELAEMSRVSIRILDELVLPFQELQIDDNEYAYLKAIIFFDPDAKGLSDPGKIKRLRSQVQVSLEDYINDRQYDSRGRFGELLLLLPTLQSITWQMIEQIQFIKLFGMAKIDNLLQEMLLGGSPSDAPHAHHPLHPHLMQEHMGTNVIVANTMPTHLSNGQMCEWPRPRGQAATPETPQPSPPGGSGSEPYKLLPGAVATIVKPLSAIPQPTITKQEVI
rRNA inh HTS: reduced GFP signal of wild-type E. coli, primary screen, bacterial rRNA inhibitor project, GFP/RFP fluorescence, OD600, single point | E. coli WT GFP vs humanized-ribosome RFP mutants, 24 h; active compounds read low; DMSO median 0, no signal -100 | GFP signal change (wild-type ribosome), % (no concentration beside the values) | hit rate 1.6% among 350,000;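 active means significant combined selectivity score with lowered wild-type GFP, culture density cut under 30%, mutant RFP and density less affected; inactive means any of these conditions unmet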; further: one replicate is shown; some compounds called inactive have numbers as strong as hits
Vif A3G: inhibitors of Vif binding to APOBEC3G peptide, primary screen, biochemical, TR-FRET, GST-Vif 1-94, biotin-A3G peptide, dose response retest (AID 1117319); Virion infectivity factor (Human immunodeficiency virus type 1 group M subtype B (isolate …; TR-FRET GST-Vif / biotin-A3G peptide binding; higher % means a stronger effect; test concentration not given here; strong numbers were not always called active; one-dose inhibition, %; IC50 in µM for titrated hits; hit rate 0.57% among 260,000;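 active means above the screen mean plus three standard deviations and confirmed in dose response; inconclusive means results disagree or hit not tested in dose response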;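 further: Vif residues 1-94 fused to GST binding biotinylated APOBEC3G peptide 110-148; 0% = full assay without inhibitor and 100% = GST in place of GST-Vif; retest series ran down from 100 µM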
rRNA inh HTS OD600: recorded beside rRNA inh HTS, whose call it bears; OD600 change, %; measured here: OD600 growth;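 optical density of the mix in the first replicate; 0 = DMSO median and -100 = no signal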
rRNA inh HTS RFP: second read-out of rRNA inh HTS, no call of its own (marks repeat the call); RFP signal change, %; measured here: RFP humanized mutant strains;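 first replicate; 0 = DMSO median and -100 = no signal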
Starred values were filed as active, the others as inactive; i = inactive; ? = inconclusive; / = not tested or not shown; + = active, no number; & = joins results of further samples.

SMILES | MLL AF4-AF9 inh | ALR H2O2 inh | FGF22 binding | Ecoli growth | HNF4A DNA FP | rRNA inh HTS | rRNA inh HTS OD600 | rRNA inh HTS RFP | Vif A3G
COc1ccc(CNC(=O)C2CCN(S(=O)(=O)N3CCC4(CC3)OCCO4)CC2)c(OC)c1 | 1.5 | -1 | i | 0.69 | 1.4 | 1 | 4 | -1.5 | ?
CCC(C(=O)NCC1CCCO1)N(C(=O)CNS(=O)(=O)c1ccccc1)c1ccc(F)cc1 (centres undefined) | -2.5 | 0 | / | 0.7 | 1.6 | 4 | 5 | -0.7 | /
CC1CCN(C(=O)Cn2cc(S(=O)(=O)CC(=O)N3CCOCC3)c3ccccc32)CC1 | -8.4 | / | i | 0.74 | 0.4 | 4 | 1 | -1.0 | -2%
COc1ccc(C(=O)COC(=O)c2ccc3c(c2)OCO3)c(OC)c1 | -0.5 | 1 | i | 0.69 | -1.1 | -15 | -14 | -2.8 | /
Cc1ccc(S(=O)(=O)/N=C(/c2ccc(F)cc2)N2CCCCC2)cc1 | -3.7 | -4 | i | / | -1.3 | 5 | 16 | -2.1 | 17%
COC(=O)C(C(=O)OC)=C(/C=C/N(C)C)N(C)C | / | -4 | / | 0.69 | -1.6 | / | / | / | -4%
COc1ccc(-c2nc3ccc(C)cn3c2Cc2ccsc2)cc1OC | 4.1 | / | i | / | 0.5 | -10 | -18 | 2.9 | /
CS(=O)(=O)N(CC(=O)NC1CC1)c1cccc(F)c1 | / | 0 | / | 0.81 | 1.2 | / | / | / | 11%
CC(=O)n1cc([C@H]2C=C(C(=O)NCc3ccccc3)O[C@@H](OCc3ccc(CO)cc3)C2)c2ccccc21 | -12 | -4 | i | / | 9.8 | -4 | -7 | -9.1 | 13%
COc1ccc([N+](=O)[O-])cc1/C=N/Nc1nn[nH]n1 | -2.9 | 3 | + | / | -2.8 | 2 | 6 | -0.9 | 5%
Cc1cccc(NC(=O)C2CCCN(S(=O)(=O)c3c(C)nn(C)c3C)C2)c1 (centres undefined) | -1.6 | 0 | i | 0.73 | 3.3 | -9 | -10 | -0.1 | 6%
C[C@H]1CN([C@@H](C)CO)C(=O)Cc2cc(NC(=O)CCCCCC(=O)Nc3ccccc3N)ccc2O[C@@H]1CN(C)C(=O)NC1CCCCC1 | -0.7 | / | i | / | / | 5 | 14 | 0.3 | /
C[C@@H]1CN([C@@H](C)CO)C(=O)CCCn2cc(nn2)CO[C@H]1CN(C)C(=O)C1CC1 | -3.5&-1.2 | / | i | / | / | 0&18 | 2&7 | -1.4&4.1 | /
COc1ccc(S(=O)(=O)N2CCOCC2)cc1NC(=O)Cc1ccc(F)cc1 | -11 | / | i | / | -3.9 | 0 | -5 | -1.4 | -1%
COc1ccc(-c2nnc(SCC3CCCO3)n2C)cc1 (centres undefined) | -1.3 | -4 | i | 0.69 | 5.0 | 12 | 21 | -9.8 | /
O=S(=O)(c1ccc(Cl)cc1)c1cnc2ccccc2n1 | -4.3 | 6 | i | 0.71 | -0.6 | 17 | 8 | 3.1 | 4%
C/C=C/c1ccc([C@H]2[C@@H](CO)N(S(C)(=O)=O)C23CN(C(=O)CC)C3)cc1 | -0.9 | / | i | / | / | 2 | -1 | -1.8 | /
CN1OC[C@@H]2CN[C@H](c3cccc(Oc4ccccc4)c3)C[C@@H]21 | 1.2 | / | i | / | 3.3 | 5 | 6 | -0.4 | 0%
CC(=O)Nc1ccc(NC(=O)C2CCN(C(=O)C3CC(=O)N(c4ccc(C)cc4)C3)CC2)cc1 (centres undefined) | 4.6 | -12 | i | 0.63 | -0.6 | 5 | 5 | -0.7 | /
CCOC(=O)N1CCC(N2C(=O)c3ccccc3C2Nc2ccc(Cl)cn2)CC1 (centres undefined) | -5.6 | / | i | 0.68 | 0.9 | -10 | -45 | 0.5 | -3%
CCCNC(=O)[C@H]1[C@H](CO)[C@H]2Cn3c(cccc3=O)[C@@H]1N2CCC(F)(F)F | -1.9 | / | i | / | / | 1 | 3 | -2.3 | /
C=CCOC(=O)/C(=C/c1cccnc1)NC(=O)c1ccccc1 | -0.4 | -20 | i | 0.65 | -1.1 | -5 | -2 | -2.5 | -2%
CCOc1ccc(C2c3[nH]c4ccccc4c3C[C@H]3C(=O)N(C4CCN(Cc5ccccc5)CC4)CC(=O)N23)cc1OC (some centres undefined) | 5.4 | -8 | i | 0.63 | 0.8 | 9 | 13 | 3.8 | -3%
CCN(CC)C(=O)CN(c1cc2c(cc1OC)oc1ccccc12)S(=O)(=O)c1ccc(C)cc1 | / | -4 | / | 0.79 | 4.9 | / | / | / | 9%
O=C1c2cc(F)ccc2-n2c1nc1ccccc1c2=O | -0.1 | 15 | i | / | -0.7 | 6 | 2 | 0.7 | /
CCN(CC)C(=O)CSc1nnc(-c2ccccc2)o1 | / | -15 | / | 0.64 | -3.5 | / | / | / | 18%
N#Cc1cnn2c(-c3cccc([N+](=O)[O-])c3)ccnc12 | -0.7 | 2 | i | 0.72 | -4.0 | -5 | 4 | -5.0 | /
O=C(O)C1CC=CCC1C(=O)Nc1ccccc1 (centres undefined) | / | / | / | 0.7 | -3.6 | / | / | / | 9%
CCN(CC)CCCNC(=O)Cn1nc(-c2ccccc2)ccc1=O | / | -8 | / | 0.75 | -1.6 | / | / | / | 1%
COc1ccccc1C(=O)CN1C(=O)NC2(CCCCCC2)C1=O | -3.2 | -5 | i | 0.72 | -2.3 | 13 | 9 | 3.1 | 9%
CN(CC(=O)Nc1ccccc1N1CCOCC1)S(=O)(=O)c1ccc(F)cc1 | / | -14 | / | 0.76 | -4.0 | / | / | / | 4%
C[C@@H]1CN([C@H](C)CO)S(=O)(=O)c2ccc(C#CCN(C)C)cc2O[C@@H]1CN(C)Cc1ccccc1 | 8.2 | / | i | / | / | -2 | 0 | -2.4 | /
O=C1CCNc2c(Cl)cc(Cl)cc21 | -3.1 | / | i | 0.62 | -3.6 | 8 | 2 | 2.4 | -5%
Cc1cccc(C(=O)Nc2cccc(C(=O)N3CCOCC3)c2)c1 | / | -6 | / | 0.65 | 2.6 | / | / | / | -4%
C[C@H](CO)N1C[C@H](C)[C@@H](CN(C)Cc2ccc(C(=O)O)cc2)Oc2ccc(NC(=O)C3CCCCC3)cc2CC1=O | -1.3 | / | i | / | / | -1 | 7 | -2.0 | /
CCOc1cc(C2Nc3ccccc3C(=O)N2c2ccccc2)c(Br)cc1OCC(=O)O (centres undefined) | / | -2 | / | 0.67 | -1.6 | / | / | / | -8%
COc1cc(C#N)ccc1OCC(=O)Nc1ccc(C)c(S(=O)(=O)N2CCOCC2)c1 | 1.9 | -8 | i | 0.7 | 1.8 | -16 | 1 | -1.8 | -5%
CCC1CCCCN1CCCNC(=O)C1CCCN(S(=O)(=O)N2CC(C)CC(C)C2)C1 (centres undefined) | 4.5 | 0 | i | 0.7 | -2.4 | 6 | 0 | 0.7 | 1%
Brc1ccc(-c2nc3ncccn3c2Nc2ccc3c(c2)OCCO3)o1 | / | 98* | / | 0.7 | -0.6 | / | / | / | 1%
CCN(C(=O)CN1CCCCC1C)c1c(N)n(Cc2ccccc2)c(=O)[nH]c1=O (centres undefined) | 2.6 | 4 | i | 0.68 | 4.7 | 4 | 10 | 1.5 | /
CCOC(=O)Cn1c(=O)n(CC(=O)OCC)c2ccccc21 | / | / | / | 0.73 | 0.9 | / | / | / | 68%
CN(Cc1ccco1)S(=O)(=O)c1ccc2c(c1)CCN2C(=O)CCC(=O)O | / | 1 | / | 0.62 | 2.5 | / | / | / | 6%
CSC(=NC#N)N1CCN(C(c2ccccc2)c2ccccc2)CC1 | 3.7 | -3 | i | 0.7 | 0.7 | -23 | -50 | 3.1 | -6%
CCN(CCn1cccn1)C(=O)c1cc(COc2cc(C)ccc2C)on1 | 1.1 | -13 | i | 0.72 | -1.1 | -12 | -20 | -0.7 | /
O=C1CCN(C(=O)Nc2cccc(Cl)c2)N1 | / | -6 | / | 0.67 | -3.2 | / | / | / | 1%

Filtered by structure, the entries above with an NH in an aromatic ring
SMILES | MLL AF4-AF9 inh | ALR H2O2 inh | FGF22 binding | Ecoli growth | HNF4A DNA FP | rRNA inh HTS | rRNA inh HTS OD600 | rRNA inh HTS RFP | Vif A3G
COc1ccc([N+](=O)[O-])cc1/C=N/Nc1nn[nH]n1 | -2.9 | 3 | + | / | -2.8 | 2 | 6 | -0.9 | 5%
CCOc1ccc(C2c3[nH]c4ccccc4c3C[C@H]3C(=O)N(C4CCN(Cc5ccccc5)CC4)CC(=O)N23)cc1OC (some centres undefined) | 5.4 | -8 | i | 0.63 | 0.8 | 9 | 13 | 3.8 | -3%
CCN(C(=O)CN1CCCCC1C)c1c(N)n(Cc2ccccc2)c(=O)[nH]c1=O (centres undefined) | 2.6 | 4 | i | 0.68 | 4.7 | 4 | 10 | 1.5 | /

The list continues.
SMILES | MLL AF4-AF9 inh | ALR H2O2 inh | FGF22 binding | Ecoli growth | HNF4A DNA FP | rRNA inh HTS | rRNA inh HTS OD600 | rRNA inh HTS RFP | Vif A3G
COCCNC(=O)c1cc2ncc(Br)cn2n1 | / | -2 | / | 0.7 | 0.7 | / | / | / | 5%
N#Cc1ccc(COc2ccc(CCO)cc2-n2nc3ccccc3n2)cc1 | / | 0 | / | 0.71 | -0.8 | / | / | / | 21%
COc1ccccc1NC(=O)N(C)C[C@H]1Oc2ncc(C#CCN(C)C)cc2C(=O)N([C@@H](C)CO)C[C@@H]1C | -10 | / | i | / | / | 7 | 13 | -1.3 | /
COc1ccc(C2CC(c3cccs3)=Nc3ccccc3S2)cc1OC (centres undefined) | / | -3 | / | 0.67 | -5.0 | / | / | / | -13%
O=C1C(Cl)=C(N2CCOCC2)C(=O)N1CCc1ccccc1 | / | / | / | 0.66 | -1.4 | / | / | / | -1%
N#C/C(=C\c1cccn1S(=O)(=O)c1ccccc1)S(=O)(=O)c1ccc(F)cc1 | -3.9 | / | i | / | 2.3 | 4 | 2 | 19 | /
CCN1CCN(CC(=O)Nc2cc(C(F)(F)F)ccc2OCCOC)CC1 | -9.4 | / | i | 0.68 | 0.4 | 10 | 3 | -5.6 | 0%
CCc1nc2ccc(C(=O)N(C)CC(=O)Nc3ccc(Cl)c(C(F)(F)F)c3)cc2nc1CC | -4.3 | -7 | i | 0.68 | -4.9 | 1 | 2 | 0.4 | -1%
O=C(N1CCOCC1)N1CCN(c2ccc(F)cc2)CC1 | / | 35 | / | 0.68 | -0.8 | / | / | / | -1%
ON=C1CCC2CCCCC2C1 (centres undefined) | 0.4 | / | i | / | -0.4 | 16 | 5 | 2.0 | /
COc1ccc2[nH]c(C(=O)N3CCNCC3)cc2c1OC | 4.8 | / | i | 0.65 | -3.9 | 1 | 5 | 6.2 | -4%
CC(=O)Nc1cc2c(=O)n(Cc3ccccc3)c(C)nc2cc1N1CCOCC1 | / | -4 | / | 0.69 | -3.3 | / | / | / | 27%
COc1ccc(N2CCOCC2)c(NC(=O)c2cccs2)c1 | 2.8 | 38 | i | 0.73 | 3.1 | -15 | -11 | -1.5 | -1%

Not all compounds are listed; the hit share may differ from the screen's.
